miR-21 reporter: raises the signal of a miR-21 reporter | Potency, µM (highest dose often 38.3 µM), without a hit: at the top dose reporter change, positive = more light | HeLa miR-21 FLuc reporter, luciferase, 48 h | 340,000 tested, under 10 active; active = well fitted rising curve with a large enough effect; inconclusive = small, poorly fitted or top-dose-only effect; inactive = no such curve, though single readings can be large or run the other way;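 further: % of control where 0% means no effect; miR-21 action dims this reporter so a rising signal means less miR-21 action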
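HeLa cells stably expressing CMV-driven firefly luciferase with a downstream miR-21 binding sequence, endogenously expressing miR-21, were treated with titrations (up to about 40uM final) for 48 hours at 37 degree Celsius. Luciferase luminescence was read after lysis.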
An asterisk follows results filed as active; u = inconclusive; [ ] = remark or other dose. These rows are one share of the data; the hit share may differ from the screen's.

SMILES	miR-21 reporter
CCOc1nc(-c2ccccc2)ccc1-c1noc(-c2ccc(C)cc2)n1	0%
CCOC(=O)C1CCC(CN(Cc2cccc(Br)c2)S(=O)(=O)c2ccc(C)cc2)CC1 (stereo not given)	19%
Cc1nc2ccc(S(=O)(=O)NCC(=O)Nc3ccc(C)c(Cl)c3)cc2s1	-4%
CCC1CN(C(=O)N2CCC(C(=O)NCc3cccc(C)c3)CC2)c2ccccc2O1 (stereo not given)	-1%
CCCCNC(=O)C1CCC(Cn2c(=O)c3sccc3n(Cc3ccccc3)c2=O)CC1 (stereo not given)	-1%
Cc1ccc(CNC(=O)CSC2=Nc3ccccc3C3=NC(C)C(=O)N23)cc1 (stereo not given)	-1%
COc1cccc(CNC(=O)c2ccc(-c3nc(CS(=O)c4ccccc4)c(C)o3)cc2)c1 (stereo not given)	5%
Cc1cccc(CNC(=O)C2CCN(c3nnc(-n4c(C)ccc4C)s3)CC2)c1	2%
COc1ccccc1CNC(=O)C(=O)NCC(c1cccs1)S(=O)(=O)c1ccccc1 (stereo not given)	18%
CCOc1ccc(-c2cc(OC(=O)c3ccccc3)c3c(C)oc(C)c3c(=O)c2)cc1	0%
Cc1ccc(C)c(N2CCN(CCCNc3ncnc4onc(-c5ccc(Cl)cc5)c34)CC2)c1	3%
Cc1cccc(NC(=O)c2c(NC(=O)c3ccccc3)sc3c2CCC3)c1	-23%
CCOc1cc(C(=O)N2CC(=O)Nc3ccc(F)cc3C2c2ccccc2)cc(OCC)c1OCC (stereo not given)	10%
Cc1ccccc1-c1noc(-c2cc(-c3ccc(F)cc3)n[nH]2)n1	-40%
CCc1cccc(CC)c1NC(=O)c1cc(S(=O)(=O)N2CCc3ccccc32)cn1C	1%
COc1ccc(NC(=O)c2[nH]nc3c2CSc2ccccc2-3)c(OC)c1	-4%
Cc1cccc(N2CCN(C(=O)C3CCC(CNS(=O)(=O)c4ccc(Br)s4)CC3)CC2)c1C (stereo not given)	1%
CC(=O)N1CCC(N(Cc2ccco2)C(=O)Nc2ccc(Br)cc2F)CC1	0%
CCc1nc2cccnc2n1-c1ccc(CC(=O)Nc2ccccc2Cl)cc1	-9%
CCCc1ccc(-c2ccc(C(=O)Oc3ccc(Br)cc3)cc2)nc1	1%
CC(C)CC(=O)OCc1cc(=O)n2nc(C3CCCCC3)sc2n1	-12%
CCCNC(=O)CCCN1C(=O)CCn2nc(-c3cccn3C)cc21	-2%
CCN1CCN(C(c2ccc(OC)cc2)c2c(O)cc(C)n(Cc3ccco3)c2=O)CC1 (stereo not given)	-3%
Fc1ccccc1N1CCN(c2nnc(C(F)(F)F)c3nnn(Cc4ccccc4)c23)CC1	6%

Arranged by length of the SMILES (lowest first): 12 of the compounds above
SMILES	miR-21 reporter
CC(C)CC(=O)OCc1cc(=O)n2nc(C3CCCCC3)sc2n1	-12%
CCCc1ccc(-c2ccc(C(=O)Oc3ccc(Br)cc3)cc2)nc1	1%
CCc1nc2cccnc2n1-c1ccc(CC(=O)Nc2ccccc2Cl)cc1	-9%
Cc1ccccc1-c1noc(-c2cc(-c3ccc(F)cc3)n[nH]2)n1	-40%
Cc1cccc(NC(=O)c2c(NC(=O)c3ccccc3)sc3c2CCC3)c1	-23%
CC(=O)N1CCC(N(Cc2ccco2)C(=O)Nc2ccc(Br)cc2F)CC1	0%
COc1ccccc1CNC(=O)C(=O)NCC(c1cccs1)S(=O)(=O)c1ccccc1 (stereo not given)	18%
CCc1cccc(CC)c1NC(=O)c1cc(S(=O)(=O)N2CCc3ccccc32)cn1C	1%
Fc1ccccc1N1CCN(c2nnc(C(F)(F)F)c3nnn(Cc4ccccc4)c23)CC1	6%
CCOc1ccc(-c2cc(OC(=O)c3ccccc3)c3c(C)oc(C)c3c(=O)c2)cc1	0%
Cc1ccc(C)c(N2CCN(CCCNc3ncnc4onc(-c5ccc(Cl)cc5)c34)CC2)c1	3%
Cc1cccc(N2CCN(C(=O)C3CCC(CNS(=O)(=O)c4ccc(Br)s4)CC3)CC2)c1C (stereo not given)	1%

Further records:
SMILES	miR-21 reporter
COc1ccc(OC)c(S(=O)(=O)NCc2ccc3c(c2)CCN3C(=O)c2cccc(C)c2)c1	22%
COc1ccc(-c2cc(OC(=O)c3cccc(Cl)c3)c3c(C)oc(C)c3c(=O)c2)cc1	11%
Brc1ccc(-c2cc3c(N4CCN(c5ccccc5)CC4)nccn3n2)cc1	-3%
Cc1ccccc1NC(=O)c1c(C)oc2ccc(O)c(CN3CCN(C)CC3)c12	-1%
O=C(CSc1c2c(nc3ccccc13)CCC2)Nc1ccc(F)cc1F	12%
O=C(Cc1csc2ccccc12)NCc1ccccc1F	-36%
Cc1cccc(Cn2cc3c(=O)n(CC(=O)Nc4ccc(C)c(F)c4)nc-3c3cc(F)ccc32)c1	2%
COc1ccc2c(c1)c1c(c(=O)n(Cc3ccccc3)c(=O)n1CC(=O)Nc1ccccc1OC)n2C	1%
CCOc1ccc(/C=C/c2nc3ccccc3n2S(=O)(=O)c2cccc(Cl)c2)cc1	-6%
CC1=C(c2ccc(C)c(C)c2)S(=O)(=O)NC1=NCc1ccccc1Cl	8%
COc1cccc(CNC(=O)CCc2nnc3n(CC(C)C)c(=O)c4ccccc4n23)c1	2%
COc1ccccc1CNC(=O)CC(c1ccc(OC)c(OC)c1)N1Cc2ccccc2C1=O (stereo not given)	-5%
CCOC(=O)C1CCCN(S(=O)(=O)c2ccc(N3CCCCS3(=O)=O)cc2)C1 (stereo not given)	9%
Cc1ccc(-n2nc(C)c3c(C)cc(=O)n(CC(=O)Nc4cccc(C)c4C)c32)cc1	4%
Cc1nn(C(=O)c2ccc(Br)cc2)c(C)c1Sc1ccccc1	-6%
CCc1ccccc1N1CC(c2nc3ccccc3n2CCOc2ccc(Cl)c(C)c2)CC1=O (stereo not given)	u
Oc1c(C(c2ccc(Cl)cc2Cl)N2CCN(Cc3ccccc3)CC2)sc2nc(-c3ccco3)nn12 (stereo not given)	2%
COc1cc2c(=O)n(CCc3ccccc3)c(=O)n(CC(=O)Nc3ccccc3)c2cc1OC	13%
COc1cccc(C2CC(=O)Nc3c2c(=O)nc2c(C)cccn32)c1OC (stereo not given)	-16%
COC(=O)CC1Oc2ccccc2-n2cc(-c3ccc(Cl)cc3)nc21 (stereo not given)	-28%
COc1cccc(CNC(=O)c2sc3ncccc3c2-n2c(C)ccc2C)c1OC	30%
Cc1cc2c(c(=O)n1Cc1ccccc1)C1O[C@](CCCCN3C(=O)c4ccccc4C3=O)(Cc3ccccc31)O2	11%[7.66 µM]
O=C(Nc1ccc(S(=O)(=O)N(Cc2ccccc2)c2ccccc2)cc1)c1ccc(F)cc1	6%
CCCOC1(C(F)(F)F)NC(=O)N(c2ccc(Cl)cc2)C1=O (stereo not given)	0%
CC(C)(C)C(=O)Nc1cccc(-c2cn3cccnc3n2)c1	-25%
CCCCN(CCCNC(=O)c1cc(Nc2ccc(OC)c(OC)c2)nc2ccccc12)c1ccccc1	4%
CCOc1ccc(CC(=O)NCc2ccc3c(c2)CCN3C(C)=O)cc1OCC	1%
Cc1ccc2nc3c(cc(C(=O)NCc4ccco4)c(=N)n3C(C)C)c(=O)n2c1	-1%
CC1=C(C(=O)Nc2cccnc2)C(c2ccccc2Cl)n2nc(-c3ccccc3)nc2N1 (stereo not given)	0%
CCCCCn1c(=O)[nH]c2cc(C(=O)NCc3ccc(C)cc3)ccc2c1=O	0%
CCCOc1cccc(C2c3c(oc4ccc(F)cc4c3=O)C(=O)N2CCCN2CCOCC2)c1 (stereo not given)	-5%
CSc1ccc(NC(=O)C2CCN(c3ncccn3)CC2)cc1	-28%
COc1ccc(NC(=O)C(=O)NCC2(c3ccccc3)CCCC2)c(OC)c1	21%
COc1ccc(CCC(=O)NC2CC(=O)N(c3ccc(OC)cc3)C2)cc1 (stereo not given)	0%
CN(Cc1ccccc1)C(=O)c1cn(C)c2ccc(S(=O)(=O)N(C)C3CCCCC3)cc2c1=O	-5%
Cc1ccccc1C(=O)N(Cc1sccc1C)C1CCS(=O)(=O)C1 (stereo not given)	2%

The final two records of the part above open the next one:
SMILES	miR-21 reporter
CN(Cc1ccccc1)C(=O)c1cn(C)c2ccc(S(=O)(=O)N(C)C3CCCCC3)cc2c1=O	-5%
Cc1ccccc1C(=O)N(Cc1sccc1C)C1CCS(=O)(=O)C1 (stereo not given)	2%
Cc1nc2ccn(Cc3cccnc3)c(=O)c2cc1C(=O)Nc1ccc(F)cc1F	0%
CCn1cc(C(=O)NCCc2ccc(Cl)cc2)c(=O)c2cc(S(=O)(=O)N3CCc4ccccc4C3)ccc21	-5%
Cc1ccc(C)c(CSc2nc3ccncc3n2Cc2nc(-c3ccccc3Cl)oc2C)c1	16%
CC(C)(C)OC(=O)N1CCC(c2c(C(=O)N3CCN(Cc4ccccc4)CC3)cnn2-c2ccc(Cl)cc2)CC1	6%
Cc1ccc(-c2nnc(Nc3ccc(Br)cc3)c3ccccc23)cc1S(=O)(=O)NCc1nc2ccccc2[nH]1	24%
O=c1cc(-c2ccc(F)cc2)nc(SCc2nc(-c3ccccc3Cl)no2)[nH]1	-7%
COc1ccc(CNc2nc3ccccc3c3nc(-c4ccccc4)nn23)cc1	-4%
COc1cccc(NC(=O)c2cnc(SCC(=O)N3CCOCC3)n(C)c2=O)c1	-22%
COc1ccc(OC)c(CNS(=O)(=O)c2ccc3c(c2)CCCN3C(C)=O)c1	2%
Cc1ccc(-c2cc3ncc4c(n3n2)-c2ccccc2OC4)cc1	-49%
COc1ccc(C(=O)Nc2cc(-c3ccccc3)nn2-c2ccccc2)cc1	-14%
CCOc1ccccc1CNC(=O)c1oc2c(c1C)-c1[nH]ncc1CC2	u
O=C(Nc1nc2c(s1)CCCC2)c1ccccc1F	u
CCOc1ccc(-c2cn3c(n2)sc2cc(C(=O)NCCCN(CC)CC)ccc23)cc1	3%
CNS(=O)(=O)c1cn(CC(=O)N2CCN(c3ccc(Cl)cc3)CC2)cc1S(=O)(=O)NC	28%
Cc1ccc(NC(=O)CN2C(=O)COc3ccc(S(=O)(=O)N4CCCCCC4)cc32)cc1Cl	u
Cc1ccc(C)c(Cn2c(-c3cccs3)nc3ccccc32)c1	21%
CN(C)C(=O)c1ccc2c(c1)N(CC(=O)NCc1ccc(F)cc1)C(=O)C1CCCCN21 (stereo not given)	-2%
COc1ccc(NC(=O)c2nc(S(C)(=O)=O)ncc2N(Cc2ccc(C)cc2)Cc2ccco2)cc1Cl	-6%
Cc1ccccc1NC(=O)Nc1nnc(N2CCCCCC2)s1	u
Cc1cccc(C(=O)Nc2ccc(OCc3cc(=O)n4ccc(C)cc4n3)cc2)c1	-6%
CCOc1cccc(CC(=O)N2CCc3c([nH]c4ccccc34)C2c2ccc(SC)cc2)c1OCC (stereo not given)	-12%
COc1ccc(CNC(=O)c2ccc(-c3nc(CSc4ccccc4)c(C)o3)cc2)c(OC)c1	2%
CC1CCCCN1C(=O)c1ccc2c(c1)N(Cc1cccc(Cl)c1)C(=O)c1ccccc1S2=O (stereo not given)	-11%
CCCCn1cc(S(=O)(=O)c2cccc(C)c2)c(=O)c2cc(F)c(N3CCOCC3)cc21	-11%
CCOc1ccc(NC(=O)C2CCN(S(=O)(=O)c3ccc4c(c3)oc(=O)n4C)CC2)cc1	1%
Cc1cn2c(=O)cc(COc3ccccc3NC(=O)c3ccccc3C)nc2s1	0%
COc1ccc(NC(=O)C2=C(C)Nc3ncnn3C2c2ccc(O)cc2)cc1 (stereo not given)	0%
CCc1ccccc1NC(=O)c1ccc2c(SCC(=O)O)c3c(nc2c1)CCC3	-39%
COc1ccc(N2CCN(C(=O)Cc3c(C(=O)O)c(C)cn3C)CC2)cc1	5%
COc1cccc(-c2nc(CS(=O)(=O)CC(=O)Nc3ccc(C)c(Cl)c3)c(C)o2)c1	0%
CC(=O)c1ccc(NC(=O)Cn2c(=O)oc3cc(S(=O)(=O)N4CCCCC4)ccc32)cc1	0%
Cc1ccc(-n2ncc(C(=O)NCc3ccco3)c2C2CCN(C(=O)OC(C)(C)C)CC2)c(C)c1	0%
CC(=O)c1ccc(NC(=O)CC2Nc3cc(C)c(C)cc3NC2=O)cc1 (stereo not given)	-11%
CCN1CCC(N(Cc2ccc3c(c2)OCO3)C(=O)Nc2cccc(C)c2C)CC1	-14%
CCC(=O)N1CCc2cc(Br)cc(S(=O)(=O)NCc3ccc(Cl)cc3)c21	21%
CCCCc1nn2c(=O)cc(COC(=O)c3ccc(NC(=O)CCc4ccccc4)cc3)nc2s1	-2%
CN(C)c1ccc(C(CNC(=O)c2ccccc2C(F)(F)F)N2CCOCC2)cc1 (stereo not given)	-1%
Cc1ccc(N2C(=O)[C@@H]3CSC(c4ccc(C(F)(F)F)cc4)N3C2=O)cc1 (stereo not given in full)	-24%
CCCN1CCN(CCNC(=O)Nc2cc(OC)cc(OC)c2)CC1	7%
CCOc1ccc(-c2cn3c(n2)sc2cc(C(=O)N4CCCC(C)C4)ccc23)cc1 (stereo not given)	0%
COCCNC(=O)Cn1ncc2c(C)n(Cc3ccc(C)cc3)c(C)c2c1=O	-1%
Cc1csc2nc(COC(=O)c3cccc(NC(=O)c4cccc(Cl)c4)c3)cc(=O)n12	-6%
COc1ccccc1CNC(=O)CCC1N=C2c3ccccc3N=C(SCC(=O)NCCc3ccc(OC)c(OC)c3)N2C1=O (stereo not given)	7%
CCOC(=O)c1ccc(NC(=O)CC2Nc3ccccc3NC2=O)cc1 (stereo not given)	1%
COc1cccc(NC(=O)C2CCCN(c3ncnc4onc(-c5ccc(F)cc5)c34)C2)c1 (stereo not given)	-11%
CCOc1ccccc1OCCCn1c(-c2ccc(Cl)cc2)nc2ccccc2c1=O	1%
Cc1ccc(Nc2c(-c3c[nH]c4ccccc34)nc3ccccn23)cc1	21%

Bioassay records (PubChem BioAssay)
